# High-throughput results deposited in PubChem BioAssay by Fisher Drug Discovery Resource Center.
# NPYLR7 agonist = mosquito NPYLR7 agonism; HEK293T NPYLR7/Galpha15, GCaMP6s calcium fluorescence; AID 1259423; activation, % at 10 µM; 0.15% of 270,000 active; in the data active = activation above about 40%;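 also: 0% = vehicle and 100% = reference agonist at the receptor; some compounds past the cut are filed as inactive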
# NPYLR7 agonist max-min = second read-out of NPYLR7 agonist, no call of its own (marks repeat the call); activation, %; measured here: Max-Min RFU normalised activation; some inactives read as strong as hits;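 span of the calcium signal over five minutes; 0% = vehicle and 100% = native peptide agonist; compound fluorescence can raise it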
# * = called active by the depositor; & = joins results of further samples. These rows are one share of the data; the hit share may differ from the screen's.
# The line under a structure holds: NPYLR7 agonist max-min, NPYLR7 agonist
- Cc1nc(CN2CCCC(O)(CN(C)C)CC2)sc1C (stereo not given)
→ 5, 6
- COc1ccccc1-n1c(SCC(=O)N(CCC#N)c2ccccc2)nnc1-c1cccs1
→ 2, 0
- COCCC1CN(Cc2cc3ccc(C)cc3[nH]c2=O)CCO1 (stereo not given)
→ 9, 13
- Cc1ccc(C)c(NC(=O)CSc2nc(=O)n(Cc3ccncc3)c3c2CCC3)c1
→ -8, -8
- CCC(C)N(Cc1cccnc1)Cc1cn[nH]c1-c1ccc(F)cc1 (stereo not given)
→ -11, -7
- CN(Cc1ccccc1)c1ncccc1CNC(=O)C1(O)CCCCC1
→ -2, -2
- Cc1cc(N)n(-c2ccccc2)n1
→ -8, -4
- O=C(Nc1ccc(Cl)cn1)c1ccc(C2SCCCS2)cc1
→ -2, 0
- COCC(O)CN1CCC(=O)N(CC2CC2)Cc2ccccc21 (stereo not given)
→ -6, -7
- COc1ccc2c(c1)CCCN2C(=O)C1CCN(S(=O)(=O)c2c(C)c(C)cc(C)c2C)CC1
→ 7, 4
- CCN(C(=O)c1cc2c(=O)n3ccccc3nc2n1C)C1CCCCC1
→ 6, 4
- COC(=O)[C@@H]1C[C@@H](O)CN1C(=O)c1cccc(-n2cccn2)c1
→ 6, 10
- O=C(CSc1ccc(NC(=O)C2CC2)nn1)OCc1ccccc1
→ -1, 0
- c1csc(-c2cc(CSc3nnc(-c4cccs4)n3C3CC3)no2)c1
→ 8, -2
- COc1cccc(N2C(=O)CSC2c2cccc(NC(=O)c3cccc(F)c3)c2)c1 (stereo not given)
→ 15, 12
- C=CC(=O)NCC1Cc2cc(OC)ccc2O1 (stereo not given)
→ 8, 5
- COc1ccc(N(C)Cc2nc3ccsc3c(=O)[nH]2)cc1OC
→ 10, 10
- CCc1ccc(C2=NNC(=NCc3ccc4c(c3)OCO4)SC2)s1
→ -3, 0
- CCOC(=O)CCC(=O)N1CCN(C(C(=O)NCCCN2CCOCC2)C2CCCC2)CC1 (stereo not given)
→ -13, -19
- COc1ncccc1-c1cccc(-c2nnc(C)s2)c1
→ 4, 4
- CC1(C(=O)O)CCN1C(=O)Cc1cccc2ccccc12 (stereo not given)
→ -1, 1
- Cc1nc2sccn2c1CN1CCC(CO)(CC2CCCCO2)CC1 (stereo not given)
→ 5&-6, 14&-2
- CC1C(=O)N(c2ccccc2-c2ccccc2)CCN1C(=O)C1CC1 (stereo not given)
→ -5, -6
- CCOC(=O)c1ccc(OC2CC3CCC(C2)N3C(=O)c2ccc(CSc3ccc(C)cc3C)cc2)cc1 (stereo not given)
→ 7, 20
- Cc1ccc(N2C(=O)CSC2c2cccc(NC(=O)c3cccc(Cl)c3)c2)cc1F (stereo not given)
→ 16, 17
- O=c1[nH]c(-c2ccccc2O)nc2ccccc12
→ 2, 3
- COc1cc(OC)nc(N2C[C@H]3OC(=O)N(Cc4ccccc4OC)[C@H]3C2)n1
→ 4, 15
- C=CCCC(O)CN(Cc1ccco1)Cc1c(CC)nn(-c2ccccc2)c1Oc1ccccc1 (stereo not given)
→ 3, -3
- Cc1cccc(C(=O)N(Cc2cc(NC(=O)CC(C)C)ccc2N(C)C)C(C)C)c1
→ 3, -2
- Cc1oc(-c2cccs2)nc1CN1CCCC(CO)(Cc2ccccc2)C1 (stereo not given)
→ -2, 1

# Sorted by number of heavy atoms (rising): part of the list above
# The line under a structure holds: NPYLR7 agonist max-min, NPYLR7 agonist
- C=CC(=O)NCC1Cc2cc(OC)ccc2O1 (stereo not given)
→ 8, 5
- O=c1[nH]c(-c2ccccc2O)nc2ccccc12
→ 2, 3
- COc1ncccc1-c1cccc(-c2nnc(C)s2)c1
→ 4, 4
- CC1(C(=O)O)CCN1C(=O)Cc1cccc2ccccc12 (stereo not given)
→ -1, 1
- COCC(O)CN1CCC(=O)N(CC2CC2)Cc2ccccc21 (stereo not given)
→ -6, -7
- O=C(CSc1ccc(NC(=O)C2CC2)nn1)OCc1ccccc1
→ -1, 0
- c1csc(-c2cc(CSc3nnc(-c4cccs4)n3C3CC3)no2)c1
→ 8, -2
- CCN(C(=O)c1cc2c(=O)n3ccccc3nc2n1C)C1CCCCC1
→ 6, 4
- Cc1oc(-c2cccs2)nc1CN1CCCC(CO)(Cc2ccccc2)C1 (stereo not given)
→ -2, 1
- COc1cc(OC)nc(N2C[C@H]3OC(=O)N(Cc4ccccc4OC)[C@H]3C2)n1
→ 4, 15
- Cc1cccc(C(=O)N(Cc2cc(NC(=O)CC(C)C)ccc2N(C)C)C(C)C)c1
→ 3, -2
- COc1ccc2c(c1)CCCN2C(=O)C1CCN(S(=O)(=O)c2c(C)c(C)cc(C)c2C)CC1
→ 7, 4
- C=CCCC(O)CN(Cc1ccco1)Cc1c(CC)nn(-c2ccccc2)c1Oc1ccccc1 (stereo not given)
→ 3, -3
- CCOC(=O)c1ccc(OC2CC3CCC(C2)N3C(=O)c2ccc(CSc3ccc(C)cc3C)cc2)cc1 (stereo not given)
→ 7, 20

# Single entries from above.
# Reading of O=c1[nH]c(-c2ccccc2O)nc2ccccc12 under NPYLR7 agonist max-min: 2
# Reading of COc1ncccc1-c1cccc(-c2nnc(C)s2)c1 under NPYLR7 agonist max-min: 4
# Reading of COc1ccc(N(C)Cc2nc3ccsc3c(=O)[nH]2)cc1OC under NPYLR7 agonist: 10

# Later entries.
# The line under a structure holds: NPYLR7 agonist max-min, NPYLR7 agonist
- COCC(C)NC(=O)Nc1cc(-c2ccccc2C)nn1CCO (stereo not given)
→ 15, 15
- CC(=O)NC1=NN(C(C)=O)C(C)(c2ccccc2)S1 (stereo not given)
→ -5, -6
- COc1cccc(OC)c1CN1CC(O)CN(C(=O)CC(C)C)CC1=O (stereo not given)
→ 28, 21
- COc1ccc(NC2=NS(=O)(=O)c3cc([N+](=O)[O-])ccc32)cc1
→ -18, -15
- Cc1ccccc1CN1C(=O)C(C)Sc2ccc(-c3ccco3)cc21 (stereo not given)
→ 10, 16
- CCSc1nnc2c(n1)OC(c1cc(C(C)(C)C)c(O)c(C(C)(C)C)c1)Nc1ccccc1-2 (stereo not given)
→ 2, 3
- NC(=O)c1cc2cc(Br)ccc2oc1=Nc1ccc(F)cc1F
→ -3, -5
- Cc1noc(C2CCN(C(C(N)=O)c3ccccc3)CC2)n1 (stereo not given)
→ 2, 5
- CN(C(=O)c1ccc(=O)[nH]c1)C(c1ccccc1)c1ccccc1
→ 2, 3
- O=C(NCc1ccc2c(c1)OCO2)c1cc(=O)c(OCc2ccccc2)c[nH]1
→ 3, 4
- C=CCSc1nnc2c(n1)OC(c1ccco1)Nc1ccccc1-2 (stereo not given)
→ 7, 18
- Cc1nc2ccc(CC(=O)N3CCC(O)(CO)CC3)cc2[nH]1
→ -10, -1
- CC(C)(C)c1ccc(N(CCCN2C(=O)c3cccc4cccc(c34)C2=O)C(=O)c2cccs2)cc1
→ 4, 5
- CCOC(=O)C1=C(C)NC2=C(C(=O)CCC2)C1c1cc(OC)c(OC)c(OC)c1 (stereo not given)
→ -9, -4
- O=C1c2ccccc2-c2nn(CN3CCN(c4ccccc4)CC3)c3cccc1c23
→ 78*, 88*
- CCc1ccc(CN(C)Cc2cc(F)c(O)c(OC)c2)nc1
→ 4, 7
- Cc1ccc(NCC(=O)NNC(=O)c2cc(Cl)ccc2F)c(C)c1
→ 7, 6
- Cc1oc(C)c(C(=O)NCC(C)c2nc3ccccc3s2)c1C (stereo not given)
→ -11, -1
- COc1ccc(S(=O)(=O)N2CCN(c3cccc(C)c3C)CC2)c2ccccc12
→ 1, 5
- Cc1cc(C(=O)N(CCC#N)Cc2cccnc2)n2nc(-c3ccccc3)cc2n1
→ 33, 23
- CC1CNc2c(cccc2S(=O)(=O)N[C@@H](CCCN=C(N)N)C(=O)N2CC[C@@H](C)C[C@@H]2C(=O)O)C1 (stereo not given in full)
→ -13, -6
- CCc1cccc(NC(=O)c2ccc(CN3CCC(NC(C)=O)C3)cc2)c1 (stereo not given)
→ 4, 6
- CN1C/C(=C/c2ccncc2)C(=O)/C(=C/c2ccncc2)C1
→ -4, -3
- O=C(O)CSCc1nnnn1-c1ccccc1
→ 10, 10
- COc1ccc(CCNC(=O)NCc2nnnn2-c2ccc(OC)cc2)cc1
→ 3, 2
- CN(CC(=O)N(CCCO)Cc1ccccc1)C(=O)OC(C)(C)C
→ -1, 0
- Cc1c(C(=O)NCc2cccc(C(F)(F)F)c2)sc(=O)n1CC(=O)N(C)C
→ -1, 1
- Cc1ccc(S(=O)(=O)N2CCN(C(=O)CN3C(=O)NC4(CCCCCC4)C3=O)CC2)c(C)c1
→ -3, 1
- O=C1/C(=C/c2ccc(Cl)cc2)C=C(c2ccccc2)N1c1cccc(I)c1
→ 11, 3
- O=C(Nc1ccc(N2CCCC2)nc1)c1cc(=O)c2ccccc2o1
→ -1, -1
- Cc1ccc(-c2nnc3c4ccccc4[nH]c(=O)n3c2=O)cc1
→ 1, 2
- Nc1cccc(-c2n[nH]c(Cn3cncn3)n2)c1
→ 0, -2
- CCn1cc(CN2CCc3c([nH]c4ccccc34)C2c2ccccc2C)c(C)n1 (stereo not given)
→ -4, 8
- Cc1ccccc1OCC1CCCN(C(=O)c2cc3n(n2)CCNC3)C1 (stereo not given)
→ 13, 22
- CC1=NC2=C(C(=O)CC(c3ccccc3)C2)C(c2ccc([N+](=O)[O-])cc2)C1C(=O)OCc1ccccc1 (stereo not given)
→ -24, -14
- CCCc1[nH]n(-c2ccc(F)cc2)c(=O)c1C1=C(N2CCN(C)CC2)C(=O)N(C2CCCCC2)C1=O
→ -2, -5
- O=C(CN1CN(c2ccccc2)C2(CCN(C(=O)c3ccccc3F)CC2)C1=O)N1CCCC1
→ 5, -4
- CC(C)NC(=O)CSc1nnnn1C1CCCCC1
→ 13, 11
- COc1cc(NC(=O)Cn2nc(C)c([N+](=O)[O-])c2C)cc([N+](=O)[O-])c1
→ -10, -4
- COc1ccc(OC)c(CN2CCN(C3CCN(C(C)C)CC3)C(CCO)C2)c1 (stereo not given)
→ -3, 11
- COCCN(Cc1cc(F)ccc1F)Cc1cccn1Cc1cccc(C)c1
→ 25, 26
- Cc1ccc(C(=O)CCC(=O)Nc2ccc(N(C)C)nc2)s1
→ 0, 1
- CCOc1cccc(C(=O)N2CCC(n3c(Cc4ccccc4)nc4ccccc43)CC2)c1
→ 9, 6
- O=C(NCc1ccccc1-c1ccccc1)c1cn(C2CCCCC2)nn1
→ -2, 11
- COc1ccccc1-c1cc(C(=O)N2CCN(c3ccccc3Cl)CC2)nc2cc(C(C)(C)C)nn12
→ 22&-5, 18&-8

# Quoted at random: two compounds from above.
# The line under a structure holds: NPYLR7 agonist max-min, NPYLR7 agonist
- COc1ccccc1-c1cc(C(=O)N2CCN(c3ccccc3Cl)CC2)nc2cc(C(C)(C)C)nn12
→ 22&-5, 18&-8
- O=C(CN1CN(c2ccccc2)C2(CCN(C(=O)c3ccccc3F)CC2)C1=O)N1CCCC1
→ 5, -4

# Other entries
# The line under a structure holds: NPYLR7 agonist max-min, NPYLR7 agonist
- O=C(/C=C/c1cccs1)N1CCCC(CCC(=O)N2CCN(Cc3ccccc3)CC2)C1 (stereo not given)
→ 5, 7
- Cc1nn(-c2ccccc2)c2sc(C(=O)N3CCCC(N)CC3)cc12 (stereo not given)
→ 3, 3
- COCCN(Cc1ccco1)C(=O)CNc1ccccc1Cl
→ -2, -1
- CCN1C(=O)C2(CCCCC2)NC1C1=Cc2ccccc2OC1 (stereo not given)
→ -24, -24
- COc1ccc(-c2cn3c(n2)CCC3)cc1
→ 4, 5
- Cc1nn(-c2ccc(Cl)nn2)c2c1C(c1cccc(O)c1)CC(=O)N2 (stereo not given)
→ -24, -18
- CN(Cc1ccc(-n2cccn2)cc1)CC1CCOC1 (stereo not given)
→ 7, 7
- CC1c2[nH]c3ccccc3c2CCN1Cc1nc2c(cnn2C)c(=O)[nH]1 (stereo not given)
→ -6, -3
- CCN1CCCCC1C(=O)NOCc1ccc(C(F)(F)F)cc1 (stereo not given)
→ 1, 1
- CC(=O)N1N=C(c2ccccc2Cl)OC1C(=O)N1CCC[C@H]1CN1CCCC1 (stereo not given in full)
→ 3, 8
- COc1ccc(-c2nnc(NC(=O)C(Cc3ccccc3)NC(=O)Nc3c(C(C)C)cccc3C(C)C)s2)cc1 (stereo not given)
→ 1, -1
- Nc1nccnc1C(=O)OCc1cc(F)cc2c1OCOC2
→ -1, 2
- Cc1cc(C(=O)NCc2cccnc2N2CCCC(O)C2)c(C)o1 (stereo not given)
→ 3, 2
